YopH PTP inh – YopH tyrosine phosphatase inhibitors, primary screen, biochemical, fluorescence Ex485/Em525; AID 898, 2007; inhibition, %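 (about 10 µM by stock and volumes)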; actives 0.16% (n = 140,000);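 active = inhibition of 50% or more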;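 note: controls were vehicle for no effect and minimum signal wells for full effect; inactives centre near -20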
Arbovirus inh – antivirals against arbovirus infection, primary screen, cell-based, full library, 10K replicate subset | arbovirus infection cell-based antiviral screen | inhibition, % at 10 µM | actives 0.37% (n = 200,000) | AID 1251, 2008;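 active = inhibition from about 30%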;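 note: bluetongue infection of BSR cells; cell survival read as ATP light after 72 h; 0% = infected wells without compound and 100% = uninfected wells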
Mtb growth – M. tuberculosis H37Rv growth inhibitors, H37Rv strain (AID 1626) | M. tuberculosis H37Rv growth inhibition; higher % means a stronger effect | one-dose inhibition, % at 10 µM; IC50 in µM for titrated hits | actives 0.95% (n = 220,000);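 active = confirmed in a dose series; inconclusive = inhibition above 80% but not taken into the dose series; inactive = below 80% or under 30% at every dose of the series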;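 note: bacteria incubated seven days before Alamar blue readout; 0% = bacteria only wells and 100% = bacteria with antibiotic wells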
Mtb bLac sens – beta-lactam sensitization of Mtb H37Rv, H37Rv | M. tuberculosis H37Rv growth with meropenem, percent inhibition; hits of this screen are not shown here | actives 0.27% (n = 330,000) | inhibition, % at 25 µM;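 active = about 74% or more and at least 40 points above the plate without the antibiotic, then above 30% in a dose series; inconclusive = first-round hits that could not be retested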;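 note: growth measured after seven days incubation then overnight dye step; 0% = bacteria only wells and 100% = bacteria with antibiotic; twin plates without the antibiotic show which effects depend on it; some results filed as inactive read as strong as hits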
RecA intein inh – Mtb RecA intein splicing inhibitors, primary screen, biochemical, fluorescence, HTS. inhibition, %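 (about 9 µM by stock and volumes)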. Protein RecA (Mycobacterium tuberculosis (strain ATCC 25618 / H37Rv)), P9WHJ3. actives 0.75% (n = 290,000). AID 2221, 2009. cell-free RecA intein splicing; in the data active = inhibition above about 30%; inconclusive = no clear call, values can overlap the other calls;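 note: 0% = vehicle wells and 100% = reference inhibitor control wells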
Target sequence (P9WHJ3 whole entry, looked up): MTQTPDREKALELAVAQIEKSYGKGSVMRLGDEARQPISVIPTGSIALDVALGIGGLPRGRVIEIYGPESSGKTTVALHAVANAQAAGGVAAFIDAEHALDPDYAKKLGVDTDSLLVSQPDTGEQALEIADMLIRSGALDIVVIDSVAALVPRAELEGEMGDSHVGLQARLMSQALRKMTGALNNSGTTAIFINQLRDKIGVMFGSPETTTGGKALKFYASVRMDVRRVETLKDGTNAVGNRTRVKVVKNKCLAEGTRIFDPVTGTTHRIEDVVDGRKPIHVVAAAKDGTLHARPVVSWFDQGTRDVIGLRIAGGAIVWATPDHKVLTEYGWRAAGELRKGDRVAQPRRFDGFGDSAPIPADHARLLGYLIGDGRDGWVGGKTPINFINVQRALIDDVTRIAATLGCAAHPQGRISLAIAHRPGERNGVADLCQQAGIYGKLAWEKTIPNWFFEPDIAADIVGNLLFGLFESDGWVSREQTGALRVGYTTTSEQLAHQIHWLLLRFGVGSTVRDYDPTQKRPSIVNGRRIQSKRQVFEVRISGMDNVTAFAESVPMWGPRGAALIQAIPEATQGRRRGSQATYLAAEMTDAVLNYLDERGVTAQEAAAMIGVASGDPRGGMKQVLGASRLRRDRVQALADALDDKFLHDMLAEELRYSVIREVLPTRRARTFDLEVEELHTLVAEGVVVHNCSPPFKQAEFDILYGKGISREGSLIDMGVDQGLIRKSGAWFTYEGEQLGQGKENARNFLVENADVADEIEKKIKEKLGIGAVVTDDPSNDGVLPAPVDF
Arbovirus inh repeat – second read-out of Arbovirus inh, no call of its own (marks repeat the call); inhibition, %; measured here: 10K subset replicate screen; many hits read low in the repeat;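 first of two repeat runs on a subset; 0% = infected and 100% = uninfected wells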
Numbers without * were called inactive; ? = inconclusive; . = not tested or not shown. An excerpt. The share of hits here may be higher or lower than overall.

SMILES | YopH PTP inh | Arbovirus inh | Mtb growth | Mtb bLac sens | RecA intein inh | others
COc1ccc(S(=O)(=O)N2CCC(NC(=O)c3ccccc3)CC2)cc1 | . | . | . | -6.8 | -2.4
CCN(CC(=O)NC(C)(C)C)C(=O)COc1c(Cl)cc(Cl)c2ccc(C)nc12 | . | . | 3.94µM* | 99.8 | 0.4
S=C(NCCc1c[nH]c2ccccc12)NC1CCCCC1 | . | 7.2 | -2.4% | 2.5 | 10.0
O=C(NNc1ncnc2c1cnn2-c1ccccc1)c1ccco1 | . | 15.7 | -9.5% | 6.8 | -1.8
Cc1nn(-c2ccccc2)c(Cl)c1/C=N\NC(=O)c1cnccn1 | -18.1 | -11.9 | 4.1% | 3.7 | -1.4
Cc1ccc(NS(=O)(=O)c2cc(C(=O)N3CCN(C)CC3)ccc2C)cc1C | . | 2.5 | 2.3% | 1.4 | -5.0
O=C(COc1ccc2ccccc2c1)N1CCN(C(=O)c2cccs2)CC1 | -24.6 | 6.7 | 11.2% | -1.2 | .
COc1ccc(-n2nc(C(=O)N3CCN(Cc4ccc5c(c4)OCO5)CC3)c3ccccc3c2=O)cc1 | -15.1 | -1.9 | 3.2% | -1.5 | -1.0
CC(=O)Nc1ccc(-c2cn3c(n2)SCC3)cc1 | . | . | . | -2.3 | -2.3
COc1ccc(C2C(C(=O)NCCCN3CCOCC3)c3ccccc3C(=O)N2c2ccc(OC)cc2)cc1 (centres undefined) | . | -19.4 | 8.1% | 4.4 | -2.7
CCN(CC)S(=O)(=O)c1ccc2c(c1)C(=NO)c1cc(S(=O)(=O)N(CC)CC)ccc1-2 | 11.6 | -28.5 | 3.7% | 3.2 | 3.4
Cc1nc(N)[nH]c(=O)c1Oc1cccc(C(F)(F)F)c1 | . | . | -5.3% | -2.3 | -1.1
CCOc1ccc2[nH]c(=O)c(CN(Cc3ccco3)C(CC)c3nnnn3Cc3ccccc3)cc2c1 (centres undefined) | -43.1 | -18.3 | 9.8% | 59.6 | 19.2
Cc1ccc(/C=N/n2c(-c3ccncc3)n[nH]c2=S)s1 | . | . | -4.5% | -7.2 | 3.2
COCCNC(=O)c1onc(CSc2cc(C)cc(C)c2)c1C(=O)NCCOC | . | . | -3.3% | 1.0 | -2.0
CCCCCn1c(=O)c(C(=O)NCc2ccccn2)c(O)c2ccccc21 | -30.3 | -24.6 | 7.4% | 59.4 | 2.0
O=C(O)C#Cc1cccc2ccccc12 | . | . | 3.1% | -8.4 | -0.3
O=C(c1ccc(Br)o1)N1N=C(c2ccc(Cl)cc2)CC1c1ccco1 (centres undefined) | . | . | . | ? | 5.9
COc1ccc(C(=O)NCCS(=O)(=O)NCc2cccs2)cc1 | . | . | . | -0.1 | 0.2
O=C(Nc1ncc2c(n1)CC(c1cccc(Cl)c1)CC2=O)c1ccco1 (centres undefined) | . | . | . | -4.8 | -1.3

Fetched one by one from the entries so far:
SMILES | YopH PTP inh | Arbovirus inh | Mtb growth | Mtb bLac sens | RecA intein inh | others
O=C(NNc1ncnc2c1cnn2-c1ccccc1)c1ccco1 | . | 15.7 | -9.5% | 6.8 | -1.8
Cc1nc(N)[nH]c(=O)c1Oc1cccc(C(F)(F)F)c1 | . | . | -5.3% | -2.3 | -1.1

Next part.
SMILES | YopH PTP inh | Arbovirus inh | Mtb growth | Mtb bLac sens | RecA intein inh | others
CC(C)(C)C(=O)COC(=O)c1ccccc1O | -18.3 | 2.8 | 10.3% | -8.7 | 0.8
COc1ccc(CN2C(=O)CNC2=S)cc1 | . | . | . | -1.8 | 0.0
O=C(COC(=O)c1ccc(Cl)c(S(=O)(=O)N2CCc3ccccc3C2)c1)Nc1ncc(Cl)cc1Cl | -7.6 | 4.5 | -6.8% | -5.0 | -2.4
CC(=O)Nc1ccc(NC(=O)C(C)n2c3ccccc3c3nc(=O)cc(C)n32)cc1 (centres undefined) | . | -3.4 | -9.4% | 2.6 | -1.3
Cn1c(=O)n(C)c2cc([N+](=O)[O-])c(N3CCN(C(=O)c4ccccc4Cl)CC3)cc21 | -12.7 | -0.9 | 0.5% | -3.7 | .
C/C(=N/N=C1\SCC(=O)N1c1ccccc1)c1ccc(C)cc1 | . | . | 12.5% | 26.0 | -0.7
CCc1c(C)c2ccc(OCC(=O)NCC3CCC(C(=O)O)CC3)cc2oc1=O (centres undefined) | . | . | . | -1.2 | -1.7
Cn1nc(C(F)(F)F)c(/C=N/OC(=O)c2ccccc2)c1Cl | -5.0 | 9.2 | 3.5% | 8.2 | -0.1
Cc1cccc(-c2nsc(SCC(=O)NCc3ccco3)n2)c1 | -28.3 | -7.0 | ? | -5.0 | 1.9
Cc1ccc(Cc2cc(C)n[nH]c2=O)cc1 | . | . | -5.9% | -4.4 | -2.1
COc1cccc2[nH]c3c(=O)n(CCCN4CCOCC4)cnc3c12 | . | . | -10.6% | -1.8 | 2.0
COc1ccc(Nc2cc(C(=O)NCc3cccnc3)c3ccccc3n2)c(OC)c1 | . | 3.0 | 6.4% | -3.5 | -1.5
O=C(Nc1ccccc1N1CCN(C(=O)c2ccc(Cl)cc2)CC1)c1cc2ccccc2o1 | 14.7 | 1.5 | 27.8% | 5.2 | 14.0
CC(C)c1ccc(C2C3=C(CC(C)(C)CC3=O)NC3=C2C(=O)c2ccccc23)cc1 (centres undefined) | -52.1 | -23.4 | 50.6µM* | 98.9 | 16.2
Cc1c(C)n(CCN(C)C)c2ccc(C(=O)OCCN(C)C)cc12 | . | . | . | -6.7 | -0.9
CCC(=O)N(Cc1ccc(S(N)(=O)=O)cc1)C1CC(=O)N(c2ccc(OC)cc2)C1=O (centres undefined) | -17.8 | -1.0 | -7.2% | -12.7 | 7.0
CC(C)[C@H](NC(=O)C1CC(=O)N(c2ccc3c(c2)OCCO3)C1)C(=O)NC1CCCC1 (some centres undefined) | . | . | . | -2.0 | 3.0
CN(Cc1cccs1)C(=O)CCc1c[nH]c2ccccc12 | . | -21.9 | 3.5% | -0.3 | 1.5
COCCCNC(=O)c1ccc(Cn2c(=O)c3ccccc3n(Cc3ccccc3C#N)c2=O)cc1 | -19.1 | -14.8 | -3.3% | -0.1 | -1.2
Cc1occc1-c1nnc(SCC(=O)Nc2ccc(F)cc2)n1Cc1ccccc1 | -12.9 | -18.1 | 3.4% | -14.3 | 7.8
O=c1[nH]cnc(O)c1C(c1ccc(F)cc1)c1c(O)nc[nH]c1=O | . | . | . | -6.2 | -3.5
C=CCn1c(O)c(C2=c3ccccc3=NC2=O)sc1=Nc1ccc(O)cc1 | . | -33.8 | 9.1% | 1.3 | 4.7 | Arbovirus inh repeat=-15.6
N#CC1=C(N)N(c2ccccc2)C(=O)C1 | -13.7 | 3.4 | 0.2% | 2.8 | .
O=C1CCC(C(=O)N2CCC(O)(c3ccccc3)CC2)CN1CCc1ccccc1 (centres undefined) | . | . | . | -9.2 | -0.8
Cc1c(Br)c([N+](=O)[O-])nn1CC(=O)N1CCN(Cc2ccccc2)CC1 | . | 5.4 | 6.0% | 9.2 | 0.9
Cc1[nH]c2ccccc2c1C(=O)COC(=O)C1CCC1 | . | . | . | ? | 2.0
COc1ccc(C(=O)NC2CC3CCCC(C2)N3Cc2ccccc2)cc1 (centres undefined) | . | . | . | -7.3 | -0.1
Cc1nn(Cc2ccccc2)c(N)c1-c1ccccc1 | -18.1 | -3.0 | -0.5% | -6.0 | . | Arbovirus inh repeat=-1.4
COc1ccc(CSc2nnc(N)s2)cc1F | -49.5 | 20.6 | -4.1% | -8.5 | -1.2
O=C(NCc1ccccc1Cl)C1CCN(C(=O)c2ccco2)CC1 | . | . | . | 3.8 | -0.7
COc1ccc(C(=O)C2CCCN(C(=O)c3cccc(N(C)C)c3)C2)cc1OC (centres undefined) | . | . | . | -2.8 | 1.1
COc1ccc(CCNC(=O)CN(c2cc([N+](=O)[O-])ccc2OC)S(C)(=O)=O)cc1 | . | -2.3 | -9.7% | 0.0 | 0.1
CCOC(=O)C1=C(C)NC(SCC(=O)Nc2nc(C)cs2)=C(C#N)C1c1cccs1 (centres undefined) | 0.1 | -22.3 | . | 95.7 | -52.6
O=C(NCN1C(=O)C2C3C=CC(C3)C2C1=O)Nc1nccs1 (centres undefined) | -37.8 | -2.4 | 0.9% | -8.2 | -0.9
COc1cc2nc(N(CCCN(C)C)C(=O)c3ccc(S(=O)(=O)N4CCc5ccccc5C4)cc3)sc2cc1OC | . | . | . | -9.9 | -1.7
COc1ccc(COC(=O)Oc2ccc(CNC(C)=O)cc2OC)c([N+](=O)[O-])c1 | . | . | . | -8.2 | -3.8
CCCCNC(=O)c1cc2nc3c(c(C(F)(F)F)n2n1)CCc1ccccc1-3 | -29.0 | -4.6 | 0.6% | -8.1 | -10.8
O=C(c1csc2ccccc12)N1CCN(c2ccccn2)CC1 | -32.3 | -4.5 | -3.8% | -3.6 | 2.4
COc1cc(/C=N/NC(=O)c2cc(-c3ccccc3)nc3ccccc23)ccc1O | . | . | . | 1.9 | 4.3
CC(C)(C)Nc1nc(OCC#N)nc(N2CCCCC2)n1 | . | 11.9 | -10.9% | 7.3 | 3.0
CC(C)CC(NC(=O)C1CCC(C)CC1)C(=O)NCc1cccnc1 (centres undefined) | -3.8 | 3.8 | -7.6% | -3.9 | 1.5
CC(C)(C)NC(=O)NCc1ccco1 | . | . | -8.2% | -3.3 | -1.0
COc1cccc(-c2nc(N3CCCCC3C)c3ccccc3n2)c1O (centres undefined) | -36.9 | -26.0 | 34.6% | 5.4 | 14.5
Cn1nnc(NC(=O)C(c2ccccc2)c2ccccc2)n1 | -22.2 | 2.1 | 2.4% | -4.8 | 4.6
Cc1[nH]c2c(C)cccc2c1CCNC(=O)C1CCCCC1C(=O)OCC(F)(F)F (centres undefined) | -12.2 | -3.1 | -3.7% | -0.3 | -3.0
COCCNC(=O)Cn1cc(/C=C2\C(=O)NC(=O)N(c3ccccc3F)C2=O)c2ccccc21 | . | . | . | 1.8 | -3.6
COc1cc(OC)cc(-n2nc(C(=O)NCCCN3CCOCC3)c3ccccc3c2=O)c1 | -25.9 | -0.4 | 10.6% | -5.8 | .
COC(=O)C(Cc1ccccc1)NC(=O)C(CC(C)C)NC(=O)OC(C)(C)C (centres undefined) | -17.5 | 3.8 | -1.2% | -3.6 | -1.9
CCOP(=O)(c1ccccc1)C1(C#N)CC1 (centres undefined) | . | 8.2 | -1.9% | -9.2 | 1.4
CCCn1cc(SCC(=O)NCC2CCCO2)c2ccccc21 (centres undefined) | -28.5 | 0.3 | -6.1% | 4.6 | -2.1
CC(CNC(=O)c1ccccc1Cl)NC(=O)c1ccccc1Cl (centres undefined) | . | . | . | -9.6 | 0.2
CCOc1ccccc1OCC(=O)Nc1ccc(S(=O)(=O)Nc2nc(C)cc(C)n2)cc1 | -32.2 | 30.0 | 2.7% | -5.5 | 2.8
O=C(NCc1ccccn1)Nc1cccc(F)c1 | . | . | . | -13.6 | -1.0
COc1cccc(C2c3[nH]c4ccccc4c3CCN2Cc2ncc[nH]2)c1 (centres undefined) | . | 0.5 | -5.1% | -12.0 | 8.0
COc1cc(C(=O)Nc2ccc3c(c2)N(C(=O)CN2CCN(C)CC2)c2ccccc2CC3)cc(OC)c1OC | . | . | 1.8% | -8.5 | -2.5
O=P(c1ccccc1)(c1ccccc1)C(O)c1ccco1 (centres undefined) | -14.3 | -1.8 | -5.4% | -10.7 | -2.3
COc1ccc(/C(=C/Nc2cccc(Br)c2)C(C)=O)cc1OC | . | 1.2 | 1.8% | -1.3 | 5.0
Cc1ccc(Nc2cc(C(=O)NCCCN3CCOCC3)c3ccccc3n2)c(C)c1 | . | -8.9 | -9.1% | -10.5 | -2.3
COc1ccc(OC)c(-c2cc(C(=O)N3CCc4ccccc4C3)no2)c1 | -10.0 | 2.5 | 0.6% | -1.5 | 19.3
Cc1[nH]nc2c1C(c1cn[nH]c1-c1ccc(F)cc1)C(C#N)=C(N)O2 (centres undefined) | -64.2 | -2.9 | -5.8% | 3.6 | 65.1*
O=C(Nc1cccc(Cl)c1N1CCOCC1)c1cccnc1Cl | . | . | 2.2% | 3.8 | 1.7
CCOC(=O)N1CCN(CC(=O)n2c(C)c(C)c3ccccc32)CC1 | -53.5 | 11.6 | -4.6% | -0.2 | -0.1

3 entries out of the list, ordered by count of non-hydrogen atoms, high to low.
SMILES | YopH PTP inh | Arbovirus inh | Mtb growth | Mtb bLac sens | RecA intein inh | others
COc1ccc(C(=O)NC2CC3CCCC(C2)N3Cc2ccccc2)cc1 (centres undefined) | . | . | . | -7.3 | -0.1
Cc1c(Br)c([N+](=O)[O-])nn1CC(=O)N1CCN(Cc2ccccc2)CC1 | . | 5.4 | 6.0% | 9.2 | 0.9
Cn1nnc(NC(=O)C(c2ccccc2)c2ccccc2)n1 | -22.2 | 2.1 | 2.4% | -4.8 | 4.6
